Screening data deposited in PubChem BioAssay by National Center for Advancing Translational Sciences (NCATS).
Vaccinia Venus: vaccinia inhibition (Venus reporter); Vaccinia virus Venus reporter expression, fluorescence; Potency, µM (highest dose often 36.5 µM), for inactives: top-dose activity change, negative = inhibition, actives largely listed as inhibitors; 330,000 compounds, 0.46% hits; AID 720580; active means well fitted inhibition curve with a large enough effect; inconclusive means small, poorly fitted or top-dose-only effect; inactive means no such curve, though single readings can be large or run the other way; tested in A549 cells; note: nearly all actives have a fitted effect of over 30% in size; inactives centre near -10
Vaccinia mCherry: inhibitors of vaccinia virus infection (mCherry reporter signal); 310,000 compounds, 0.63% hits; Potency, µM (highest dose often 36.5 µM), without a hit: top-dose activity change, negative = inhibition, usual class: inhibitors; AID 720579; Vaccinia virus mCherry reporter infection, fluorescence; about a quarter of the inactives have no number; active = well fitted inhibition curve with a large enough effect; inconclusive = small, poorly fitted or top-dose-only effect; inactive = no such curve, though single readings can be large or run the other way; tested in A549 cells; note: nearly all actives have a fitted effect of over 35% in size; inactives centre near -10
* marks the source's active call; other numbers are inactive results; i = inactive; ? = inconclusive; · = not tested or not shown; [ ] = remark or other dose. % is set by controls: 0 for no effect and ±100 for the full control effect; potency is the fitted concentration of half-maximal effect.

No.	SMILES	Vaccinia mCherry	Vaccinia Venus
1	O=C(COC(=O)Cc1ccc(Br)cc1)NC12CC3CC(CC(C3)C1)C2	-4%	-9%
2	CC1CCCC(C)N1CCNC(=O)CCc1nnc2n(Cc3ccccc3)c(=O)c3ccccc3n12 (centres undefined)	-10%	2%
3	CC1CCCCC1NC(=O)CCCCn1c(=O)[nH]c2ccsc2c1=O (centres undefined)	i	-18%
4	O=C(CSc1nccc(=O)[nH]1)N1CCCc2ccccc21	?	-11%
5	CCc1nnc(NC(=O)CSc2nnc(-c3ccccc3OC)n2-c2ccc(C)cc2)s1	-15%	-22%
6	COCCNC(=O)c1c(CSc2ccc(F)cc2)noc1C(=O)NCc1ccccc1	?	-8%
7	COC(=O)/C(=C1/Oc2cc3c(cc2S1)OCO3)C(F)(F)F	i	-22%
8	CC(=O)Nc1ccc(S(=O)(=O)Oc2ccc(C(=S)N3CCC(O)CC3)cc2)cc1	-8%	-15%
9	COc1ccc(C2=NN(C(=O)c3cccs3)C(O)(C(F)(F)F)C2)cc1 (centres undefined)	-21%	?
10	COc1ccc(NC(=O)Cn2cnc3c(cnn3C(C)(C)C)c2=O)cc1OC	i	-7%
11	Cc1cc2ccccc2n2c(SCC(=O)NCc3cccs3)nnc12	i	-10%
12	C=CCc1ccc(OCCOCCN(C)C)c(OC)c1	-24%	-10%
13	Fc1cccc(Cc2c(-c3ccc(Cl)cc3)nc3ccc(Cl)cn23)c1	1%	2%
14	CN(CC(=O)Nc1cccc(F)c1)C(=O)/C=C/c1cn(Cc2ccccc2)nc1-c1cccnc1	-15%	-15%
15	C[C@@H]1CN([C@@H](C)CO)S(=O)(=O)c2ccc(-c3ccc(C#N)cc3)cc2O[C@@H]1CN(C)Cc1ccccn1	-7%	-24%
16	Cc1ccc(NS(=O)(=O)c2cccc(C(=O)NCc3ccccn3)c2)cc1	-14%	-14%
17	O=C(COC(=O)c1cccc(S(=O)(=O)N2CCOCC2)c1)Nc1nc(-c2ccccc2Cl)cs1	-19%	-16%
18	Cc1cc(NC(=O)c2oc3c(c2C)-c2[nH]ncc2CC3)ccc1Br	-11%	7%
19	O=C(NC1CCCCC1)c1ccc2c(c1)N(Cc1ccc(Cl)cc1)C(=O)c1ccccc1S2=O (centres undefined)	-21%	-21%
20	Cc1ccc(CSC2=NCCN2C(=O)c2ccco2)cc1	46%[activator]	3%
21	O=C(CSc1nnc(Cc2ccccc2)n1Cc1ccco1)NC12CC3CC(CC(C3)C1)C2	-5%	-23%
22	CCOc1ccc(CCNC(=O)CCN2N=C(c3ccc(OC)cc3)CCC2=O)cc1OCC	-13%	-14%
23	CCOc1ccc(-c2nnn(CC(=O)c3ccc4c(c3)OCCO4)n2)cc1OCC	-14%	2%
24	CCOC(=O)[C@]12CCC=C1N(Cc1ccco1)C(=O)[C@H](CC(=O)NCc1cccc3ccccc13)C2	4%	-1%
25	CCCCOc1ccc(CSC2=NCCN2)cc1[N+](=O)[O-]	?	-24%
26	CCCc1nc2oc3c(NCCCN(C)C)ncnc3c2c2c1CCCC2	i	-16%
27	CCOc1ccc(CCNc2ncnc3onc(-c4ccc(Cl)cc4)c23)cc1	-12%[7.34 µM]	-22%[7.34 µM]
28	Cc1ccc(S(=O)(=O)NCCc2cn3ccsc3n2)c(C)c1	-3%	4%
29	COC(=O)[C@@H](NS(=O)(=O)c1cc(Br)ccc1Br)C(C)C	-3%	-8%
30	Cc1cccc(Cc2nc3ccccc3[nH]2)c1	-7%	9%
31	Cc1ccc2nc3sc(C(=O)NCCCN(C)c4ccccc4)cc3cc2c1	-9%	-4%
32	Cc1cc(C)cc(OCCSc2nc3ccc(NC(=O)c4cccs4)cc3s2)c1	-6%	-2%
33	Cn1c(CN2CCN(CCO)CC2)c(C#N)c2ccccc21	i	4%
34	O=C(CSc1ccc2nnc(CCNS(=O)(=O)c3ccccc3)n2n1)Nc1ccccc1C(F)(F)F	-11%	-8%
35	Cc1c(NC(=O)CSc2ccccc2Cl)c(=O)n(-c2ccccc2)n1C	-5%	-8%
36	O=S(=O)(Nc1ccc2nc(-c3ccc(F)cc3)oc2c1)c1ccccc1	0%	5%
37	COc1ccc(C(NC(=O)C(C)C)c2c(O)ccc3ccccc23)cc1OC (centres undefined)	-26%	-19%
38	CN(C(=O)CCNC(=O)Cn1cnc2ccccc2c1=O)c1ccc(Br)cc1	i	11%
39	COc1ccc(-c2cc3nc(C)c(CCC(=O)NCc4ccccc4Cl)c(C)n3n2)c(OC)c1	-14%	-6%
40	CCOc1cc(NC(=O)C2CCCCC2)c(OCC)cc1NC(=O)c1ccccn1	-19%	-9%
41	Cc1ccc(-n2nnnc2SCC(=O)NNC(=O)c2ccco2)c(C)c1	i	-11%
42	COC(=O)c1c(NC(=O)/C=C/c2ccc(OC)cc2)sc2c1CCC2	3%	-3%
43	CCOC(=O)N1CCN(CC(=O)N2CCC(C(N)=O)CC2)CC1	i	-11%
44	COc1ccc(-n2nc3c(c2NC(=O)COc2cccc(OC)c2)CS(=O)(=O)C3)cc1	i	-7%
45	CC1Nc2ncnc(N3CCN(c4ccccc4)CC3)c2N(Cc2ccccc2)C1=O (centres undefined)	-18%	-17%
46	COc1cc(C(=O)Nc2sc3c(c2C(=O)O)CCC3)cc(OC)c1OC	i	0%
47	COc1ccc2c(c1)OC(C)CN(CCNC(=O)C1CCOC1)C2 (centres undefined)	-4%	7%
48	O=C(Nc1cc(Sc2ccccn2)cc([N+](=O)[O-])c1)c1ccc(Cl)cc1	·	10µM*
49	Cc1ccc(NC(=O)c2ccccc2-c2ccccc2C(=O)O)cc1C	i	-3%
50	NC(=O)c1nsc(C(=O)N(c2ccccc2F)C(C(=O)NCc2ccccc2)c2ccc(O)cc2)c1N (centres undefined)	-18%	-13%

Additional results:
No.	SMILES	Vaccinia mCherry	Vaccinia Venus
51	Cc1cc(S(=O)(=O)N2CCN(c3c(C)cccc3C)CC2)ccc1F	·	13%
52	CCOC(=O)c1sc(-c2ccccc2)cc1NC(=O)Nc1ccc([N+](=O)[O-])cc1	0%	-6%
53	CC(C)Cc1ccc(C(C)C(=O)OCC(=O)c2c[nH]c3ccccc23)cc1 (centres undefined)	-26%	-24%
54	CC(=O)c1ccc(-c2cnc3c(NC=O)cc(-c4cccc(C(=O)N(C)C)c4)cn23)cc1	-21%	?
55	Cc1cc(NC(=O)CSc2nc3cc(C)c(C)cc3cc2C)no1	-9%	-10%
56	CC1CCN(C(=O)c2ncn(C)c2C(=O)N2CCC(C)CC2)CC1	i	1%
57	Cc1ccc(-n2ncc3c2CCCC3NC(=O)CCn2ccnc2C)cc1C (centres undefined)	-1%	-14%
58	CCOC(=O)c1cnn(CCOC(=O)c2ccccc2)c1NC(=O)c1ccccc1	i	-21%
59	O=C(CSCCOc1ccccc1)NCc1ccncc1	-14%	-16%
60	O=C(CSc1ccc(-c2cccs2)nn1)Nc1ccccc1C(F)(F)F	0%	-5%
61	O=C(NCCc1ccc(Cl)cc1)c1nnc(Cc2ccc(F)cc2)o1	-4%	-14%
62	CCOC(=O)N1CCN(C(=O)CSCc2ccccc2)CC1	i	-9%
63	NC(=O)c1ccc(Cn2c(C(=O)c3ccc(Cl)cc3)c3ccccc3[n+]2[O-])cc1	-5%	-15%
64	COc1cc(C(=O)NCC2CCCO2)ccc1OCc1c(C)noc1C (centres undefined)	-11%	0%
65	O=C(NCCN1CCOCC1)c1ccc(=O)n(Cc2ccc(Cl)cc2)c1	-2%	-12%
66	Cc1ccc(NC(=O)CSc2n[nH]c(C)c2[N+](=O)[O-])cc1	-4%	-8%
67	CCCN1C(=O)c2ccccc2NC1c1ccc(OC)c(CSc2ccccn2)c1 (centres undefined)	-11%	-5%
68	COc1ccc(S(=O)(=O)NCCc2csc(C)n2)cc1C	i	-9%
69	O=C(NCCc1ccccc1)C1CCCN(S(=O)(=O)c2cccnc2)C1 (centres undefined)	i	-11%
70	Cn1ncc(N=Cc2ccc([N+](=O)[O-])cc2)c1C(=O)N1CCOCC1	i	-6%
71	COc1ccc(/C=C/C(=O)Nc2cc(C)on2)cc1	-12%	-9%
72	Cc1cccc(C(=O)NCc2ccc(S(N)(=O)=O)cc2)c1[N+](=O)[O-]	-3%	3%
73	Cc1ccc(NC(=O)C2CC(=O)N(c3ccc(OC(C)C)cc3)C2)cc1 (centres undefined)	-12%	-13%
74	COc1cc2ccccc2cc1C(=O)Nc1ccc(O)cc1	?	?
75	O=C(O)CCCNC(=O)/C(=C\c1ccc(Cl)cc1)NC(=O)c1ccccc1Br	i	-5%

Retrieved by compound from the entries so far, three records:
No.	SMILES	Vaccinia mCherry	Vaccinia Venus
32	Cc1cc(C)cc(OCCSc2nc3ccc(NC(=O)c4cccs4)cc3s2)c1	-6%	-2%
7	COC(=O)/C(=C1/Oc2cc3c(cc2S1)OCO3)C(F)(F)F	i	-22%
36	O=S(=O)(Nc1ccc2nc(-c3ccc(F)cc3)oc2c1)c1ccccc1	0%	5%

Next part.
No.	SMILES	Vaccinia mCherry	Vaccinia Venus
76	CC(C)(C)CC(=O)Nc1nnc(SCC(=O)N2CCCCC2)s1	i	-11%
77	CC1CCCC(C)N1C(=O)Cn1cc(/C=C2/C(=O)Nc3ccccc32)c2ccccc21 (centres undefined)	-23%	?
78	C=CCSc1nc(C)c(CC(=O)OCC(C)C)c(=O)[nH]1	·	-12%
79	COc1ccccc1OCC(=O)Nc1ccc(S(=O)(=O)N2CCCCCC2)cc1	i	1%
80	Cc1cccc(NS(=O)(=O)c2ccc(C(=O)N3CCC3)cc2)c1C	-16%	-13%
81	O=C(NCCOc1ccccc1)c1cc2ccccc2o1	-18%	-10%
82	CCOC(=O)N1CCN(CC(=O)Nc2ccc(F)c(F)c2)CC1	-10%	-22%
83	COc1ccc(C(=S)N(C)C)cc1OC	·	-5%
84	Cn1nc(C(=O)Nc2nc3ccccc3[nH]2)ccc1=O	i	-16%
85	COc1ccccc1OCCCOc1ccc([N+](=O)[O-])cc1Cl	·	?
86	CN(C)S(=O)(=O)n1cc(/C=C(\NC(=O)c2ccccc2Cl)C(=O)NCCCn2ccnc2)c2ccccc21	-6%	8%
87	O=C1CCCc2cc(S(=O)(=O)NCC3CCC(C(=O)NCc4ccc(F)cc4)CC3)ccc2N1 (centres undefined)	-10%	-20%
88	COc1ccc(OCCCn2cc(/C=C3/C(=N)N4C=C(C)SC4=NC3=O)c3ccccc32)cc1	-15%	3%
89	C=C1C(O)(c2ccccc2)C2CC[N+]1(C)CC2 (centres undefined)	i	-1%
90	CCO/N=C(\C)c1c(O)cc(C(C)C)n(-c2ccccc2)c1=O	-12%	-2%
91	COc1ccc(OC)c(NC(=O)Cc2coc3ccc(C)cc23)c1	i	-9%
92	CN1CCN(c2ccc(NC(=O)c3ccc4ccccc4c3)cc2)CC1	-28%	-12%
93	CCc1ccc(OCc2nnc(SCC(=O)Nc3cccc(C(=O)N4CCOCC4)c3)o2)cc1	-5%	-7%
94	O=C(Cc1ccccc1)NN1CCCCC1	23%	6%
95	CCOc1ccc(NC(=S)N2CCc3cc(OC)c(OC)cc3C2COc2ccc3c(C)cc(=O)oc3c2)cc1 (centres undefined)	12%	-4%
96	CCOC(=O)c1ccc(NC2c3ccccc3C(=O)N2c2ccc(C)cn2)cc1 (centres undefined)	?	-21%
97	O=c1oc2ccccc2c2c1cnc1ccccc12	i	0%
98	CC(C)CC(=O)NC(=S)Nc1ccc(F)cc1F	-12%	-10%
99	COc1cc2c(cc1OC)C(COc1cc(C)cc(C)c1)N(C(=O)c1ccc(S(=O)(=O)N3CCCC3)cc1)CC2 (centres undefined)	-9%	-12%
100	Cc1cc(C)cc(OC(C)C(=O)Nc2nonc2-c2ccc(Br)cc2)c1 (centres undefined)	-18%	-6%

Record cards, from the list above.
O=c1oc2ccccc2c2c1cnc1ccccc12 is listed as Vaccinia mCherry = i; Vaccinia Venus = 0%
CN(C)S(=O)(=O)n1cc(/C=C(\NC(=O)c2ccccc2Cl)C(=O)NCCCn2ccnc2)c2ccccc21 is listed as Vaccinia mCherry = -6%; Vaccinia Venus = 8%

Later entries
No.	SMILES	Vaccinia mCherry	Vaccinia Venus
101	CCCn1c(=O)n(N)c2ccccc21	-11%	-6%
102	O=C(NCC1CCCN1S(=O)(=O)c1cccs1)c1cccc(Cl)c1 (centres undefined)	-1%	-6%
103	Cc1nc(SCc2ccccc2)c2ccsc2n1	i	-5%
104	Cc1ccc(NC(=O)C2CCN(S(=O)(=O)c3cccc4nsnc34)CC2)cc1F	i	-13%
105	CN(C)C(=O)c1c(-c2ccccc2)oc2ccc(O)cc12	?	-13%
106	Cc1c(NC(=S)NC(NC(=O)C(C)(C)C)C(Cl)(Cl)Cl)c(=O)n(-c2ccccc2)n1C (centres undefined)	i	-15%
107	CCOc1ccc(C(=O)C[n+]2ccccc2C)cc1	i	-4%
108	COc1cccc2c1O/C(=N\O)C(C(=O)Nc1cccc(C)c1C)C2 (centres undefined)	?	-7%
109	COC[C@H]1CCCN1[C@H]1CS(=O)(=O)N[C@@H]1COCc1ccccc1	1%	2%
110	CC1=Nc2ccc(C)c3nc(C)cc(c23)N1c1ccc(C)cc1	?	-28%
111	COc1ccccc1C(CCN(Cc1cccs1)C(C)=O)c1ccco1 (centres undefined)	-8%	6%
112	COc1ccc(S(=O)(=O)NCCC(=O)NCc2ccccc2)cc1	i	-3%
113	Cc1[nH]nc(N=CC2=C(O)CC(C)(C)CC2=O)c1-c1ccc(Cl)cc1	-9%	7%
